Screening data (PubChem)
AID504770 – growth inhibition of E. coli YBA685, primary screen, V. cholerae RctB inhibitors | 0.27% of 130,000 active | z-score (concentration not given with the values) | E. coli YBA685 rctB-dependent plasmid, OD600 growth, 3 h; stronger effect = lower value;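 active = z-score under -2 on both plates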;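 note: wells of about 30 µL received 100 nL stock; score is relative to mean and SD of the test wells; the first replicate is given; strong numbers were not always called active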
CapD inh – Bacillus anthracis CapD inhibitors, primary screen, biochemical, fluorescence intensity; CapD gamma-glutamyltranspeptidase (Bacillus anthracis Ames Ancestor); purified CapD enzyme, fluorescence intensity read-out; stronger effect = lower value; some hits fall short of the stated cut; 0.23% of 140,000 active; z-score (no concentration beside the values);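 active = z-score under -4 in either of two replicates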;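 note: stock transfer was 100 nL into about 40 µL; score is relative to mean and spread of the plate; one replicate is shown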
* = called active by the depositor; / = not tested or not shown.

mol | AID504770 | CapD inh
COc1ccc(/C=C2/N=C(c3ccccc3)OC2=O)s1 | -1.7 | -0.18
CCOC(=O)NC(=S)N1C(C)CCCC1C (centres undefined) | -0.35 | 0.22
COC(=O)c1ccc(CSc2nc(-c3cccs3)nc3c2c(=O)n(C)c(=O)n3C)o1 | 0.1 | 0.43
CN(C)S(=O)(=O)c1cc(C(=O)Nc2nccs2)c(Cl)cc1Cl | 0.45 | -0.98
c1ccc2c(CNn3cnnc3)cccc2c1 | 1.9 | 0.28
Cc1[nH]nc2ncc(C(=O)c3ccccc3O)cc12 | -0.8 | /
C=C1SC(Nc2c(C)cccc2C)=NC12CCCCC2 | -0.95 | -0.81
O=c1[nH]cccc1-c1nc2cc(Cl)c(Cl)cc2n1Cc1ccc(F)cc1 | / | 70
CCCc1cc(NCc2cccnc2)n2c(nc3ccccc32)c1C#N | 1.9 | /
O=C(CC1(O)C(=O)Nc2ccccc21)C1CC2C=CC1C2 (centres undefined) | 0.05 | 0.32
O=C(Nc1ccc(C(F)(F)F)cc1)O/N=C/c1c(Cl)cccc1Cl | / | 1.5
CN(CCC#N)C(=O)Cn1ncc2c(=O)oc3ccccc3c21 | 2.5 | -0.86
O=C(C1CC1)N1CCc2cc(F)ccc21 | / | 0.26
O=S(=O)(c1ccccc1)c1ccc(O)cc1 | -1 | -0.67
CCOC(=O)c1cc(-c2ccc(F)cc2)n(CC(=O)NC2CCCC(C)C2C)c1C (centres undefined) | 0.4 | -0.21
CC(C)NCC(=O)Nc1ccc(S(N)(=O)=O)cc1 | -0.5 | /
O=C(NCc1ccco1)C(c1ccccc1)N(C(=O)Cc1cccs1)c1cccnc1 (centres undefined) | 0.15 | /
O=C(NCC(c1ccco1)N1CCCC1)c1ccc(-c2nc3ccccc3s2)s1 (centres undefined) | -0.2 | /
CC1CCCC(C)N1C(=O)CN(C)S(=O)(=O)c1ccc(Cl)cc1 (centres undefined) | -0.15 | 0.21
O=C(COC(=O)c1cccc2ccccc12)NC1CCS(=O)(=O)C1 (centres undefined) | -0.05 | /
O=C(O)c1ccc(NC(=O)C2CC(=O)N(CCc3ccccc3)C(=Nc3ccccc3)S2)cc1 (centres undefined) | / | 1.2
N#Cc1c(N)nc(SCC(N)=O)c(C#N)c1-c1ccc(Br)cc1 | / | 3.7
O=C(O)Cn1c(=O)oc2cc(S(=O)(=O)N3CCOCC3)ccc21 | 0.6 | 0.34
CCOC(=O)C1=C(c2ccccc2)Nc2ncnn2C1c1ccc(OCc2ccccc2)cc1 (centres undefined) | -0.6 | -0.35
COC(=O)C1=C(N)Oc2c(c(=O)oc3ccccc23)C12C(=O)N(C)c1ccccc12 (centres undefined) | -0.35 | -0.49
O=C(C(Sc1ccccc1)c1ccccc1)N1CCOCC1 (centres undefined) | -0.45 | -0.055
COc1ccc(-c2nc3ccccc3n2CCOc2ccccc2)cc1 | 1.2 | -0.43
COc1ccc(O)c(C(=O)c2cnn(C(=S)Nc3ccccc3)c2N)c1 | -0.15 | /
O=c1ccc(-c2ccc(S(=O)(=O)NCCc3cccs3)o2)n[nH]1 | 0.7 | 2.4
Cc1ccc2cc3cc(C(=O)NC(C)C)sc3nc2c1 | -0.3 | 4.2
COC(=O)c1cccc(OCC(O)CN(C)Cc2ccc(OC(F)F)c(OC)c2)c1 (centres undefined) | -0.05 | /
C/C(CC12CC3CC(CC(C3)C1)C2)=N\NC(N)=O | -0.4 | /
CCN1C(=O)/C(=C/c2ccc(-c3ccc(Br)cc3)o2)N(CC)C1=S | -0.6 | 5
CC1=C2C(=NCCN1)C(=O)N(c1ccccc1)C2c1cccs1 (centres undefined) | 0.55 | -1.3
CC(=O)OC1CC2(C)C(CCC3C2CCC2(C)C(OC(C)=O)CCC32)CC1=O (centres undefined) | 0.1 | -0.28
Cc1ccc(-c2n[nH]c(=O)c3ccccc23)cc1S(N)(=O)=O | 0.15 | 0.11
O=C(Oc1ccc(F)cc1)c1cccs1 | / | -0.28
CCC(=O)c1cn(S(=O)(=O)c2ccc(C)cc2)c2ccccc12 | -0.65 | -0.58
Cc1ccc(Cn2c(SCc3cccc(C(F)(F)F)c3)nc3ccncc32)cc1 | 0.85 | 0.7
CCN(CC)Cc1c(O)ccc2c(=O)c(-c3ccc(OC)c(OC)c3)c(C(F)(F)F)oc12 | / | -0.02
OC(CNCc1ccco1)COc1ccccc1 (centres undefined) | 2.3 | -0.045
O=C(O)CCC(=O)Nc1sc2c(c1C(=O)O)CCCC2 | -0.7 | 0.21
O=S(=O)(c1ccccc1)N(CCO)Cc1ccccc1 | -0.5 | -0.08
N#CC1=C(N)NC(SCC(=O)Nc2cccc3ccccc23)=C(C#N)C12CCCCC2 | 0.35 | /
CC1CCC(NC(=O)c2cc3oc4ccccc4c3n2C)CC1 (centres undefined) | 0.05 | 0.92
CCN(CC)c1ncnc2sc3c(c12)CCCC3 | -0.45 | -0.17
CCOc1ccc(-n2c(=S)sc3c2nc(SCC(=O)Nc2ccc(N(C)C)cc2)n2c4ccccc4nc32)cc1 | / | 1.7
COc1ccc2c(c1)C(=O)c1cc(OC)ccc1-2 | / | 0.24
c1ccc(-c2cc3ccsc3o2)cc1 | 0.15 | 0.02
Cc1nc(-c2ccc(Cl)cc2)sc1C(C)O (centres undefined) | / | 36

The results go on:
mol | AID504770 | CapD inh
Cc1ccc(S(=O)(=O)c2cnc(C)nc2-c2ccncc2)cc1 | / | -0.32
Cc1cc(Cl)ccc1OCCN(C)CCO | -1 | -0.1
O=C(CCN1C(=O)/C(=C\c2ccco2)SC1=S)NN1CCOCC1 | 0.6 | /
O=C(COc1ccc(-c2nnco2)cc1)N(Cc1cccs1)c1ccc2c(c1)OCCO2 | -0.1 | /
O=C(Nc1cc(C(F)(F)F)cc(C(F)(F)F)c1)C(Cl)(Cl)Cl | / | 0.03
COC(=O)NC1CCS(=O)(=O)C1 (centres undefined) | -0.9 | -0.095
CCOC(=O)Cc1ccc(-n2c(C)ccc2C)cc1 | 1.2 | -0.34
CC1CCN(CC(=O)NC2CC2)CC1 | 0.3 | -0.53
Fc1ccc(C2C3=C(Nc4ncnn42)c2ccccc2OC3c2ccc(Cl)cc2)cc1 (centres undefined) | / | 0.93
CC(C)[C@H](NC(N)=O)C(=O)Nc1ccc(Cl)c(Cl)c1 | -1.5 | /
CC(=O)Nc1nnc(C)s1 | -0.55 | -0.36
CCc1cccc(CC)c1NC(=O)COc1ccccc1C(=O)N1CCOCC1 | 1.9 | -0.53
CCc1ccc(NC2=NC(C(=O)Nc3ccccc3)CC(=O)N2)cc1 (centres undefined) | 2.2 | 0.55
COCCCn1c(SCc2ccc(C(=O)O)cc2)n[nH]c1=O | 1.8 | /
Cn1cccc1C(=O)OCC(=O)N(Cc1ccccc1)C1CCS(=O)(=O)C1 (centres undefined) | -0.3 | /
Cc1nn(C)c(Oc2ccccc2)c1CCNS(=O)(=O)c1ccc(F)cc1 | / | -0.2
O=C(NN1C(=O)/C(=C/c2ccc(-c3ccc([N+](=O)[O-])cc3)o2)SC1=S)c1ccccc1[N+](=O)[O-] | / | 0.51
CC1(C)CC(=O)c2cnc(N)nc2C1 | -0.65 | /
CSc1cc(-c2ccncc2)nc(-c2cccs2)c1 | 2.5 | 9.2
COc1ccc2oc(=O)c(C(N)=O)cc2c1 | -0.45 | /
COc1ccc(C2CC(=O)N(CC(=O)N3CCOCC3)c3ccccc3S2)cc1 (centres undefined) | -1 | 0.85
COc1cc2c(cc1OC)CN(Cn1cnc3ccccc3c1=O)CC2 | -1.8 | /
OC(COc1ccc(-c2ccccc2)cc1)CN1CCCCC1 (centres undefined) | 0.25 | 0.33
COc1ccccc1CN(C)C(=O)CN1CCN(C(=O)c2cccs2)CC1 | -1.1 | /
O=C(CSCC(O)Cn1c2ccccc2c2ccccc21)Nc1ccccc1 (centres undefined) | -0.85 | 10

Two entries from above, with each value named:
COc1ccc(C2CC(=O)N(CC(=O)N3CCOCC3)c3ccccc3S2)cc1 (centres undefined)
  AID504770: -1
  CapD inh: 0.85

COc1cc2c(cc1OC)CN(Cn1cnc3ccccc3c1=O)CC2
  AID504770: -1.8
  CapD inh: /

(listing goes on)
mol | AID504770 | CapD inh
COC(=O)/C=C1/C(=O)N/C(=N\c2nc(C)cc(C)n2)N1c1cccc(C)c1 | -0.25 | 4.3
Nc1cc(-c2ccccc2)n2c(n1)nc1ccccc12 | 0 | 0.66
NC(=O)CCNC12CC3CC(CC(C3)C1)C2 | -0.6 | 0.25
CCOc1cc(C(=O)Nc2cc(Cl)ccc2OC)cc(OCC)c1OCC | 0.5 | -0.3
CCOC(=O)COc1ccccc1C(O)C#N (centres undefined) | / | 1.7
OC(COc1ccc(F)cc1)CN1CCN(c2ccccc2F)CC1 (centres undefined) | 0.05 | -0.12
Cc1cc(S(=O)(=O)N2CCOCC2)ccc1OCC(=O)Nc1ccc2c(c1)OCO2 | -0.5 | /
COC(=O)c1cc(S(=O)(=O)N2CCN(c3cccc(C(F)(F)F)c3)CC2)cn1C | -0.05 | 0.97
Cc1ccc(-c2nc3cc(C)c(C)cc3nc2-c2ccc(Cl)cc2)cc1 | / | 3.3
CCOc1ccccc1C1Nc2ccccc2NC2=C1C(=O)CC(c1ccc(OC)c(OC)c1)C2 (centres undefined) | / | -1.1
CSc1nnc(COc2cccc(C(F)(F)F)c2)n1-c1ccccc1 | / | -0.7
COC(CNc1ncnc2c1c(-c1ccccc1)cn2-c1ccc(C)cc1)OC | 0.3 | 0.005
O=c1oc2c3c(ccc2c2c1CCCC2)OCN(c1ccc(F)cc1)C3 | -0.4 | 10
CCSc1nnc(SCc2cc(=O)oc3cc(OC)ccc23)s1 | -0.1 | /
CCCN1CCC(N(C(=O)c2ccc(C(F)(F)F)nc2)C2CC2)CC1 | / | -0.24
Cc1oc2cc(O)cc(C)c2c(=O)c1Oc1ccccc1 | -0.6 | -0.11
COc1cccc(N2C(=O)C(N3C(=O)c4ccc([N+](=O)[O-])cc4C3=O)C2c2cccs2)c1 (centres undefined) | / | -0.84
COc1ccc(C(=N/O)/C(=N/O)c2ccc(OC)cc2)cc1 | -1 | -0.21
Fc1ccccc1Cn1c(CSC2=NCCN2)nc2ccccc21 | -0.45 | 2.2
O=C(COc1ccc(Br)cc1)Nc1ccccc1N1C(=O)c2ccccc2C1=O | -0.15 | 0.17
CON(C)C(=O)Nc1cc2c(=O)c3ccccc3oc2nc1C(F)(F)F | / | 0.17
Cc1ccc2cc3cc(C(=O)NCC4(c5ccccc5)CCCC4)oc3nc2c1 | -0.1 | -0.095
CCOc1nc(C)ccc1-c1noc(-c2ccccc2Cl)n1 | 0.55 | 0.31
O=C(CSc1ccc(Cl)cc1)Nc1cccc(Cl)c1 | 0.05 | -0.24
S=c1nc2c(cnn2-c2ccccc2)c(Nc2ccccc2)[nH]1 | -0.3 | 0.29

Reprinted from the part before: 7 compounds, followed by the next part.
mol | AID504770 | CapD inh
Fc1ccccc1Cn1c(CSC2=NCCN2)nc2ccccc21 | -0.45 | 2.2
O=C(COc1ccc(Br)cc1)Nc1ccccc1N1C(=O)c2ccccc2C1=O | -0.15 | 0.17
CON(C)C(=O)Nc1cc2c(=O)c3ccccc3oc2nc1C(F)(F)F | / | 0.17
Cc1ccc2cc3cc(C(=O)NCC4(c5ccccc5)CCCC4)oc3nc2c1 | -0.1 | -0.095
CCOc1nc(C)ccc1-c1noc(-c2ccccc2Cl)n1 | 0.55 | 0.31
O=C(CSc1ccc(Cl)cc1)Nc1cccc(Cl)c1 | 0.05 | -0.24
S=c1nc2c(cnn2-c2ccccc2)c(Nc2ccccc2)[nH]1 | -0.3 | 0.29
CC(C)(C)OC(=O)NC1(C(=O)O)CC1 | -1.6 | 0.095
Cc1onc(-c2c(Cl)cccc2Cl)c1C(=O)NC(=S)N1CCOCC1 | -0.7 | -0.34
O=C(COC(=O)/C=C/c1ccco1)Nc1ccccc1 | 1.5 | 0.03
c1cc2c(cc1-c1nnc(NC3CCCCC3)o1)OCO2 | -1 | /
O=C(CSc1cnccc1C(F)(F)F)NCc1cccnc1 | / | -0.24
C=CCn1c(SCc2ccccc2C#N)nc2scc(-c3cccs3)c2c1=O | -0.15 | /
Cc1cccc(CN2CCN(CC(=O)O)C2=O)c1 | 1.1 | -1.8
Cc1cc(C)cc(N2C(=O)N(CC(=O)N3CCOc4ccc(C)cc43)C3CS(=O)(=O)CC32)c1 (centres undefined) | -0.2 | -0.1
O=C(N/N=C/c1ccco1)c1cccc(NC(=O)c2cccc(Cl)c2)c1 | 1.1 | -0.62
CCOc1c(Cl)cnn(-c2ccccc2)c1=O | 1.4 | -0.23
COc1ccc2c(c1)O/C(=C\c1cccc(OC(=O)N3CCOCC3)c1)C2=O | -0.2 | /
COc1ccc(C2CC(=O)Nc3ccc4ccccc4c32)c(OC)c1OC (centres undefined) | / | 0.47
O=S(=O)(Cc1ccc(Cl)cc1)CC(O)COc1ccc(F)cc1 (centres undefined) | 0.4 | 0.78
CC(C)NCc1nnc(-c2ccccc2Cl)o1 | -0.75 | /
CC(=O)Oc1ccccc1C(=O)N1CC(C)OC(C)C1 (centres undefined) | -0.1 | /
Cn1ccnc1SCC(=O)c1ccc(NS(C)(=O)=O)cc1 | -0.25 | /
O=C(O)c1ccsc1 | 0.1 | /
CC1(C)CC(=O)C2=C(C1)OC(N)=C(C#N)C21CCCCC1 | -0.4 | /
CCOc1ccc(Nc2cnnc(Nc3ccc(OCC)cc3)n2)cc1 | 0.1 | 0.12
CCSc1nsc(SCC)c1C(N)=O | -0.35 | -0.08
O=C1C2CC=CCC2C(=O)N1CN(Cc1ccccc1)Cc1ccccc1 (centres undefined) | -0.5 | /
CC(NC(=O)C1CC1)c1ccncc1 (centres undefined) | 1.7 | 0.71
Cc1ccc(NC(=S)N2CCC(N(C)CCN3CCOCC3)CC2)cc1C | 1 | 3.9
COc1ccc(NC(=O)C2CC(=O)N(C)C(=Nc3ccc(Cl)c(Cl)c3)S2)cc1 (centres undefined) | / | -0.37
NC(=O)C1CCN(C(=O)CN(Cc2ccccc2)S(=O)(=O)c2ccccc2)CC1 | 1.7 | /
